# Assay outcomes from PubChem.
# DUX4 txn inh – blocks DUX4-driven transcriptional activation; 293T-iDUX4 ZSCAN4-Gaussia luciferase reporter, 24 h; hits give low values; activity change, negative = inhibition, % (test concentration not listed); 37,000 compounds, 0.8% hits;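 active = -10% or lower and over 25 points stronger than a control reporter; inconclusive = -10% or lower with a smaller gap; inactive = above -10%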;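 note: 0% = median of neutral control wells and -100% = median of positive control wells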
# DUX4 txn inh difference – second read-out of DUX4 txn inh, no call of its own (marks repeat the call); Gaussia minus Italica difference, %; measured here: selective DUX4 reporter inhibition;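 worked out from the two reporters; negative = selective loss of the DUX4 reporter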
# DUX4 txn inh control – recorded beside DUX4 txn inh, whose call it bears; activity change, negative = inhibition, %; measured here: Italica tet-on control reporter;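 0 = neutral control and -100 = positive control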
# Numbers without * were called inactive; ? = inconclusive; / = not tested or not shown.
SMILES,DUX4 txn inh,DUX4 txn inh difference,DUX4 txn inh control
COc1ccc2c3c([nH]c2c1)[C@@H](CO)N(C(=O)c1ccc(F)cc1)CC31CN(C(=O)Nc2ccc(F)cc2)C1,4,6,-1.8
CC=Cc1ccc2n(c1=O)C[C@@H]1[C@@H](CO)[C@H](C(=O)N(C)C)N(CCC(F)(F)F)[C@H]21 (mixture of isomers),0,-3,2.9
CS(=O)(=O)N1[C@H](C(=O)NC2CCC2)[C@@H](CO)[C@@H]2Cn3c(ccc(-c4cccc(F)c4)c3=O)[C@@H]21,0,0,0.2
COc1cccc(S(=O)(=O)Nc2ccc3c(c2)[C@@H]2C[C@H](CC(=O)NCc4ccc(Cl)cc4)O[C@@H](CO)[C@@H]2O3)c1,?,/,/
C[C@@H]1CCCCO[C@H](CN(C)Cc2ccc(C(=O)Nc3ccccc3N)cc2)[C@@H](C)CN([C@@H](C)CO)C(=O)c2cc(N(C)C)ccc2O1,-1,-1,-0.1
Cc1cc(C(=O)Nc2ccc3c(c2)C(=O)N(C)[C@@H]2CC[C@H](CC(=O)NC4CCCC4)O[C@@H]2CO3)no1,3,-1,3.5
CS(=O)(=O)Nc1ccc2c(c1)[C@H]1C[C@H](CC(=O)NCc3ccncc3)O[C@@H](CO)[C@H]1O2,3,-4,7.0
O=C(C[C@H]1CC[C@H]2[C@@H](COC[C@@H](O)CN2C(=O)c2ccncc2)O1)NCc1cc(F)cc(F)c1,5,3,2.3
Cc1ccc(S(=O)(=O)N2C[C@H](O)COC[C@H]3O[C@@H](CC(=O)NCc4ccc5c(c4)OCO5)CC[C@@H]32)cc1,-4,-10,6.0
O=C(C[C@H]1CC[C@@H](NS(=O)(=O)c2ccc(F)cc2)[C@@H](CO)O1)NC1CCCCC1,0,7,-6.3
O=C(CC1CC1)N1[C@@H](CO)[C@@H](c2ccccc2)C12CN(Cc1ccccc1)C2,-5,-4,-0.9
COc1ccc2c3c([nH]c2c1)[C@H](CO)NCC31CN(C(=O)Nc2c(C)noc2C)C1,17,9,8.4
CCC(=O)N1CC(=O)N2[C@H](CO)[C@@H](c3ccc(C#CCC(C)C)cc3)[C@H]2C1,-1,-1,-0.2
COc1ccccc1CNC(=O)C[C@H]1C[C@H]2c3cc(NC(=O)c4cccnc4)ccc3O[C@H]2[C@H](CO)O1,?,/,/
CC(C)CC#Cc1ccc([C@@H]2[C@H](CO)N3C(=O)CN(C(=O)Cc4ccccc4)C[C@@H]23)cc1,4,4,0.3
Cc1noc(C)c1NC(=O)N[C@H]1C=C[C@H](CC(=O)Nc2ccc(-c3ccccc3)cc2)O[C@@H]1CO,0,1,-1.3
CC(C)NC(=O)N1[C@H](CO)[C@H](c2ccc(-c3ccc(F)cc3)cc2)[C@@H]1C#N,-3,-4,1.1
C[C@H](CO)N1C[C@H](C)[C@@H](CN(C)S(=O)(=O)c2cn(C)cn2)Oc2c(NC(=O)Nc3ccc(C(F)(F)F)cc3)cccc2C1=O,-2,-4,2.8
CCCC#Cc1ccc([C@H]2[C@@H](CO)N3C(=O)CN(C(=O)NC4CCCC4)C[C@@H]23)cc1,8,3,4.9
O=C(CCN1CCCCC1)NCC[C@H]1CC[C@@H](NC(=O)C2CCOCC2)[C@@H](CO)O1,7,8,-1.7
CC1C=NC(S(=O)(=O)N2CC[C@@H]3[C@H]2c2cc(-c4ccc(F)cc4)ccc2N(C)[C@H]3CO)=N1 (stereo partly specified),4,-3,7.6
COc1ccc2c3c(n(C)c2c1)[C@@H](CO)N(C(=O)Nc1ccc(F)cc1)CC31CN(S(=O)(=O)c2cccc(F)c2)C1,?,/,/
C[C@H]1CN([C@@H](C)CO)S(=O)(=O)c2ccc(-c3cccc(C#N)c3)cc2O[C@H]1CN(C)C(=O)c1ccccc1,0,-1,0.6
O=C1CN(S(=O)(=O)Cc2ccccc2)C[C@@H]2[C@H](c3ccc(C#CCC4CCCC4)cc3)[C@@H](CO)N12,0,-9,9.3
C[C@@H]1CC(=O)N[C@@H](c2ccccc2)C/C=C\C[C@H](c2ccccc2)NC1=O,0,-4,3.5

# Exported with values under each structure: entries from further up
# Every second line gives: DUX4 txn inh, DUX4 txn inh difference, DUX4 txn inh control
> C[C@H](CO)N1C[C@H](C)[C@@H](CN(C)S(=O)(=O)c2cn(C)cn2)Oc2c(NC(=O)Nc3ccc(C(F)(F)F)cc3)cccc2C1=O
  -2, -4, 2.8
> COc1ccc2c3c([nH]c2c1)[C@@H](CO)N(C(=O)c1ccc(F)cc1)CC31CN(C(=O)Nc2ccc(F)cc2)C1
  4, 6, -1.8
> CS(=O)(=O)Nc1ccc2c(c1)[C@H]1C[C@H](CC(=O)NCc3ccncc3)O[C@@H](CO)[C@H]1O2
  3, -4, 7.0
> COc1cccc(S(=O)(=O)Nc2ccc3c(c2)[C@@H]2C[C@H](CC(=O)NCc4ccc(Cl)cc4)O[C@@H](CO)[C@@H]2O3)c1
  ?, /, /
> O=C1CN(S(=O)(=O)Cc2ccccc2)C[C@@H]2[C@H](c3ccc(C#CCC4CCCC4)cc3)[C@@H](CO)N12
  0, -9, 9.3
> CC=Cc1ccc2n(c1=O)C[C@@H]1[C@@H](CO)[C@H](C(=O)N(C)C)N(CCC(F)(F)F)[C@H]21 (mixture of isomers)
  0, -3, 2.9
> C[C@H]1CN([C@@H](C)CO)S(=O)(=O)c2ccc(-c3cccc(C#N)c3)cc2O[C@H]1CN(C)C(=O)c1ccccc1
  0, -1, 0.6

# Further entries follow.
SMILES,DUX4 txn inh,DUX4 txn inh difference,DUX4 txn inh control
O=C(c1ccccn1)N1CC(=O)N2[C@H](C1)[C@H](c1ccc(C#Cc3ccccc3)cc1)[C@@H]2CO,-1,1,-2.2
C[C@@H]1CN([C@@H](C)CO)C(=O)CCCn2nncc2CO[C@@H]1CN(C)Cc1cccc2c1OCCCO2,1,-1,1.3
CO[C@@H]1CN(C)C(=O)c2cc(NC(=O)c3nc4ccccc4s3)ccc2OC[C@H](C)NC[C@@H]1C,?,/,/
O=C1CN(S(=O)(=O)Cc2ccccc2)C[C@H]2[C@@H](c3ccc(C#Cc4ccccc4)cc3)[C@@H](CO)N12,?,/,/
CC(C)c1cn(CC[C@H]2CC[C@H](NC(=O)c3cccc(F)c3)[C@@H](CO)O2)nn1,4,6,-2.3
O=C(Nc1ccc(C(F)(F)F)cc1)N[C@@H]1C=C[C@@H](CC(=O)N2CCCCC2)O[C@@H]1CO,?,/,/
C[C@@H]1CN([C@H](C)CO)C(=O)c2cc(NS(C)(=O)=O)ccc2O[C@@H](C)CCCCO[C@H]1CN(C)S(=O)(=O)c1ccccc1,-1,-4,2.9
Cc1cccc(-c2ccc([C@H]3[C@H](CO)N4C(=O)CN(C(=O)c5ccccc5)C[C@@H]34)cc2)c1,2,-2,3.9
COc1ccc(NC(=O)Nc2ccc3c(c2)[C@@H]2C[C@@H](CC(=O)NCCc4ccccc4)O[C@H](CO)[C@@H]2O3)cc1,2,7,-5.1
COc1cccc(S(=O)(=O)N(C)C[C@@H]2OCc3ccccc3-c3ccccc3C(=O)N([C@@H](C)CO)C[C@@H]2C)c1,?,/,/
COc1ccc(NC(=O)N2CC(=O)N3[C@H](CO)[C@@H](c4ccc(C5=CCCC5)cc4)[C@H]3C2)cc1,10,9,1.1
CC(C)C#Cc1ccc([C@H]2[C@@H](CO)N3C(=O)CN(C(=O)Cc4ccccc4)C[C@H]23)cc1,-1,-10,9.1
CO[C@@H]1CC[C@H]2CCOc3ccc(C#N)cc3C(=O)N(C)[C@@H](C)C(=O)N(C)C[C@@H]1O2,-5,-2,-2.6
COCC(=O)N1[C@H](C#N)[C@H](c2ccccc2)[C@@H]1CO,-3,0,-3.4
Cc1nn(C)cc1NC(=O)C[C@@H]1CC[C@@H]2[C@@H](COc3ccc(NC(=O)c4cccc(F)c4)cc3C(=O)N2C)O1,0,-2,2.1
C[C@H](CO)N1C[C@H](C)[C@H](CN(C)C(=O)Nc2ccc3c(c2)OCCO3)OCc2cnnn2CCCC1=O,5,2,3.8
C/C=C/c1ccc([C@H]2[C@@H](CO)N(CC3CC3)[C@@H]2CNC(=O)NC(C)C)cc1,5,15,-10
N#Cc1cccc(-c2ccc(C3[C@H]4CNC[C@@H]3N4Cc3cc(-c4ccccc4)on3)cc2)c1 (stereo partly specified),?,-1,4.2
CCCN1[C@@H]2Cn3c(ccc(/C=C/c4ccccc4)c3=O)[C@H]1[C@@H](C(=O)NCc1ccccn1)[C@@H]2CO,-1,-1,0.0
O=C(Cc1ccccn1)N1CC2(C1)[C@@H](c1ccccc1)[C@H](CO)N2C(=O)c1ccncc1,6,2,3.7
N#C[C@H]1[C@H](c2ccc(-c3cccc(F)c3)cc2)[C@H](CO)N1S(=O)(=O)c1cccc(F)c1,3,0,3.6
COc1ccc(S(=O)(=O)N2CC[C@@H]3[C@H]2c2cc(-c4cccc(C#N)c4)ccc2N[C@@H]3CO)cc1,?,/,/
CC(C)C#Cc1ccc2c(c1)O[C@@H](CN(C)C(=O)Nc1ccccc1)[C@@H](C)CN([C@H](C)CO)S2(=O)=O,0,-2,2.6
CCC(=O)N1[C@@H]2c3cccc(=O)n3C[C@@H]2[C@@H](CO)[C@@H]1C(=O)NC1CCCCC1,-6,3,-8.3
COc1ccc(-c2ccc(C3[C@H]4CNC[C@@H]3N4S(=O)(=O)Cc3ccccc3)cc2)cc1 (stereo partly specified),11,5,6.1

# Next part, overlapping the part above by five compounds.
SMILES,DUX4 txn inh,DUX4 txn inh difference,DUX4 txn inh control
N#C[C@H]1[C@H](c2ccc(-c3cccc(F)c3)cc2)[C@H](CO)N1S(=O)(=O)c1cccc(F)c1,3,0,3.6
COc1ccc(S(=O)(=O)N2CC[C@@H]3[C@H]2c2cc(-c4cccc(C#N)c4)ccc2N[C@@H]3CO)cc1,?,/,/
CC(C)C#Cc1ccc2c(c1)O[C@@H](CN(C)C(=O)Nc1ccccc1)[C@@H](C)CN([C@H](C)CO)S2(=O)=O,0,-2,2.6
CCC(=O)N1[C@@H]2c3cccc(=O)n3C[C@@H]2[C@@H](CO)[C@@H]1C(=O)NC1CCCCC1,-6,3,-8.3
COc1ccc(-c2ccc(C3[C@H]4CNC[C@@H]3N4S(=O)(=O)Cc3ccccc3)cc2)cc1 (stereo partly specified),11,5,6.1
CN(C)CC(=O)N1CC2(C1)[C@@H](c1ccccc1)[C@@H](CO)N2C(=O)C1CCCC1,0,-1,1.3
CCc1cnc(N2[C@H](C#N)[C@@H](c3ccccc3)[C@@H]2CO)s1,-5,0,-5.1
O=C(c1ccc2c(c1)OCO2)N1CC2(C1)[C@H](c1ccccc1)[C@@H](CO)N2C(=O)C1CCC1,9,15,-6.3
C[C@@H]1CN([C@@H](C)CO)C(=O)Cc2cc(N(C)C)ccc2O[C@H]1CN(C)CC1CC1,-1,-1,-0.5
CN1c2ccc(-c3ccccc3F)cc2[C@H]2[C@H](CCN2C(=O)CN2CCOCC2)[C@H]1CO,17,13,4.2
CCCN(C[C@H]1[C@H](c2ccccc2)[C@@H](CO)N1C(C)=O)C(=O)NC(C)C,-2,0,-1.6
OC[C@H]1[C@@H](c2ccc(-c3ccc(F)cc3)cc2)[C@H]2CN(CCC(F)(F)F)CCCCN21,?,/,/
COCC#Cc1ccc([C@@H]2[C@@H](CO)N3C(=O)CN(C(=O)Nc4ccccc4F)C[C@H]23)cc1,6,0,5.8
O=C([C@H]1N[C@H]2c3ccc(C4=CCCCC4)c(=O)n3C[C@H]2[C@@H]1CO)N1CCc2ccccc2C1,-1,8,-8.9
COc1ccc(NC(=O)N(C)C[C@@H]2OCc3cn(nn3)CCCC(=O)N([C@H](C)CO)C[C@@H]2C)cc1,3,-1,3.4
O=C(Cc1ccncc1)N1CC(=O)N2[C@H](C1)[C@H](c1ccc(C3=CCCC3)cc1)[C@@H]2CO,8,5,3.6
COc1ccc2c3c(n(C)c2c1)[C@@H](CO)N(C)CC31CN(C(=O)c2ccccc2F)C1,-35*,-31*,-4.3*
CS(=O)(=O)N1[C@@H](C#N)[C@@H](c2ccccc2-c2ccccc2)[C@@H]1CO,10,1,9.0
CO[C@@H](CN(C)C(=O)Nc1ccc(F)cc1)[C@@H](C)CN(Cc1ccccc1Cl)[C@H](C)CO,1,-1,1.8
CC(C)CC#Cc1ccc([C@H]2[C@H](CO)N3C(=O)CN(C(=O)NC(C)C)C[C@@H]23)cc1,22,19,2.5
O=C([C@@H]1[C@@H](CO)[C@@H]2Cn3c(ccc(-c4ccncc4)c3=O)[C@@H]2N1Cc1cocn1)N1CCCCC1,1,2,-1.0
OC[C@H]1[C@H](c2ccc(C#Cc3ccccc3F)cc2)[C@H]2CN(Cc3cncnc3)CCCCN21,?,/,/
CO[C@H]1CC[C@H]2CCOc3c(C#N)cccc3C(=O)N(C)[C@H](C)C(=O)N(C)C[C@H]1O2,-2,-4,1.3
O=C(C[C@@H]1C[C@@H]2c3cc(NC(=O)Nc4ccc(C(F)(F)F)cc4)ccc3O[C@@H]2[C@H](CO)O1)NCc1ccc(Cl)cc1,3,2,1.0
COCC(=O)N1[C@@H](CO)[C@H](c2ccccc2)C12CN(C(=O)NC1CCCCC1)C2,13,9,4.2
Cc1noc(C)c1NC(=O)Nc1cccc2c1O[C@@H](CN(C)Cc1ccc(C(=O)Nc3ccccc3N)cc1)[C@@H](C)CN([C@H](C)CO)C2=O,-1,-3,1.6
CCC(=O)N1C[C@@H](C)[C@H](OC)CN(C)C(=O)c2ccc(NC(=O)c3ccno3)cc2OC[C@@H]1C,-1,-10,9.2
CCS(=O)(=O)Nc1ccc2c(c1)C(=O)N(C)[C@@H]1CC[C@H](CC(=O)N3CCN(C)CC3)O[C@@H]1CO2,-1,-1,0.7
C[C@H]1CN([C@@H](C)CO)S(=O)(=O)c2ccc(-c3ccccc3F)cc2O[C@@H]1CN(C)C(=O)C1CC1,1,-3,3.4
COc1ccc(-c2ccc([C@@H]3[C@H](C#N)N(C(=O)NC(C)C)[C@H]3CO)cc2)cc1,1,-4,4.3

# Some of the compounds tested, so the mix of outcomes need not match the whole.
